RVFV N-RNA FP – inhibitors of Rift Valley Fever Virus nucleocapsid-RNA interaction; 20,000 compounds, 0.1% hits; RVFV N-RNA binding, fluorescence polarization; stronger effect = lower value; % bound, % (no concentration beside the values);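 active = between 0 and 58% in either replicate with normal brightness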;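 also: 100 nL library stock added to about 12 µL; 100% = protein and probe without compound and 0% = probe alone; numbers are from one replicate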
Target sequence (P21700 whole entry, looked up): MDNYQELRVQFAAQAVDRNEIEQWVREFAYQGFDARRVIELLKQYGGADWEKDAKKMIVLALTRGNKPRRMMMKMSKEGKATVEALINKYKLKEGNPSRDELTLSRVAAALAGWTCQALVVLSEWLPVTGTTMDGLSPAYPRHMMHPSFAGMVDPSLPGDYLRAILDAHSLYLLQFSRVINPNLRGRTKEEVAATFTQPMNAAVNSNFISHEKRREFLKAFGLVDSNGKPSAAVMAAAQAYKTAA
* marks the source's active call; other numbers are inactive results; & = joins results of further samples. The list is partial; rates above refer to the full screens.

SMILES,RVFV N-RNA FP
CCCCC(=O)Nc1cc(-c2nc3cc(C(C)C)ccc3o2)ccc1OC,95.7
C(CN1CCOCC1)NC1CC2CCC1C2 (configuration not stated),95.8
OCC(O)[C@H]1O[C@@H]2O[C@H](C(Cl)(Cl)Cl)O[C@@H]2[C@H]1O (some centres not stated),100.7
CC(=O)Nc1cccs1,98.1
O=C(CCc1ccc(O)cc1)c1c(O)cc(O)cc1O,92.3
Cc1cccc(C(=O)N2CCN(S(=O)(=O)N3CCCCC3)CC2)c1,95.6
CC(C)C(=O)Nc1ccc([N+](=O)[O-])c(C(F)(F)F)c1,97.0&94.5&98.3
Cn1c(=O)c2[nH]c(-c3ccc(OCC(=O)NCc4ccccc4)cc3)nc2n(C)c1=O,100.6
O=C(O)C(=O)/C=C(\O)c1ccc(Cl)cc1,99.9
C=CCOc1cccc(-c2nc(-c3ccccn3)no2)c1,97.3
COc1ccc2cc(CCC(C)=O)ccc2c1,93.1&97.7
O=C(CC1NCCNC1=O)NCCc1ccccc1 (configuration not stated),97.9
CN1C(=O)CSC1=NC12CC3CC(CC(C3)C1)C2,91.8
CCCN1C(=O)C2ON(c3ccccc3)C(c3ccncc3)C2C1=O (configuration not stated),96.5
O=C1C=C(Nc2ccccc2)C(=O)N1Cc1ccccc1,101.8
N[C@@H]1CONC1=O,97.7&97.5&91.8
O=C(/C=C/c1ccccc1)Nc1ccc(-c2nnc(-c3ccco3)o2)cc1,97.4
COc1ccc(OC)c(C(O)C(C)N)c1 (configuration not stated),99.7
CSc1nnc2c(n1)OC(C)Nc1ccc(Br)cc1-2 (configuration not stated),94.3
O=C(NCC(=O)N1CCN(c2ccccc2)CC1)c1cccs1,90.0
O=C(NCC1CCN(S(=O)(=O)c2ccccc2)CC1)Nc1ccccc1,96.2
CCNC(=O)CSCc1ccc(C)cc1,97.0
CCc1ccccc1NNC(N)=S,92.2
c1ccc(CCN2CCN(c3ccccc3)CC2)cc1,96.5
O=C1Nc2ccccc2C(=O)C1(O)O,89.3
COc1ccccc1-c1ccc(=O)n(CC#N)n1,100.1
CC(=O)N(C1=C(O)c2ccccc2C(=O)C1=O)C1CCCCC1,82.1
COCCn1c(=NC(=O)CN2C(=O)c3ccccc3C2=O)sc2ccccc21,99.2
CC(=O)OCC(=O)[C@@]1(O)CC[C@H]2[C@@H]3C[C@H](C)C4=CC(=O)C=C[C@]4(C)[C@H]3[C@@H](O)C[C@@]21C,96.4
CSc1nc(C)cc(Oc2ccc(=O)n(-c3ccccc3)n2)n1,91.2
CC1C(C#N)=C(SCC#N)NC2=C1C(=O)CC(C)(C)C2 (configuration not stated),93.6
Cc1noc(C)c1NC(=O)NCc1cc(F)cc2c1OCOC2,99.1
CN(Cc1ccccc1)S(=O)(=O)c1ccc(C(=O)Nc2nnc(-c3ccco3)o2)cc1,91.6
Cc1cccc(-c2n[nH]c(=S)n2C2CCCCC2)c1,96.6
N#C/C(=C/c1cn(-c2ccccc2)nc1-c1cc2ccccc2oc1=O)C(N)=O,97.1
CC(C)(C)NS(=O)(=O)c1ccc(NC(=O)c2ccc(Br)o2)cc1,96.2
COC(=O)C12CCC(C)(C(=O)O1)C2(C)C (configuration not stated),90.1
NC(=O)N/N=C/c1coc2ccccc2c1=O,87.9
COc1ccc(Cl)c2sc(N3CCN(C(=O)CS(=O)(=O)c4ccc(F)cc4)CC3)nc12,100.8
S=C(NC1CCCC1)N1CCN(C/C=C/c2ccccc2)CC1,89.3
Cc1ccc(N/N=C(/C#N)C(=N)N2CCCCCC2)cc1,96.5
C#CCSc1nc2ccccc2c(=O)[nH]1,90.9
O=C(Nc1ccc(F)cc1F)Nc1ccccc1C(=O)NCCN1CCNC1=O,96.1
O=c1cc(CN2CCc3ccccc32)occ1OCc1ccc(Cl)cc1,94.0
CSc1nc(/N=C/N(C)C)n2nc(C)cc2n1,92.6

Quoted at random: 5 entries already listed
SMILES,RVFV N-RNA FP
O=C1Nc2ccccc2C(=O)C1(O)O,89.3
CN(Cc1ccccc1)S(=O)(=O)c1ccc(C(=O)Nc2nnc(-c3ccco3)o2)cc1,91.6
O=C(CC1NCCNC1=O)NCCc1ccccc1 (configuration not stated),97.9
CC(C)C(=O)Nc1ccc([N+](=O)[O-])c(C(F)(F)F)c1,97.0&94.5&98.3
N#C/C(=C/c1cn(-c2ccccc2)nc1-c1cc2ccccc2oc1=O)C(N)=O,97.1

(cont.)
SMILES,RVFV N-RNA FP
O=C1CCCN2N=C(SCC(=O)Nc3cccc4ccccc34)SC2=N1,100.5
CCN(CC)CC(=O)Nc1c(C)cccc1C,95.0&102.2&95.3
CC(C)C(=O)Nc1cccc(C(=O)Nc2ccccc2)c1,97.6
COc1cccc(C(=O)NC(=O)c2oc3ccccc3c2C(N)=O)c1OC,102.8
O=C(Nc1ccc(Oc2ccccc2)cc1)C1CC1,93.8
CN(C)/C=C(\C#N)C(=O)NC1CCCCC1,96.7
CN1C(=O)N(C)C(O)C1O (configuration not stated),89.6
Cc1cc(=O)n2ncnc2n1CC(=O)N/N=C/c1ccc(Cl)cc1,94.4
O=C(N1CCCCC1)N1CCN(C(c2ccccc2)c2ccccc2)CC1,97.8
CC[C@H]1CN2CCc3cc(OC)c(OC)cc3[C@@H]2C[C@@H]1C[C@H]1NCCc2cc(OC)c(OC)cc21,101.6
CN(C)c1cccc2c1c(NC(=O)Nc1ccccc1)nn2C,93.1
CCN1CCC[C@H]1CNC(=O)c1c(OC)ccc(Br)c1OC,98.2
COC(=O)c1c(N)n(C)c2nc3ccccc3nc12,96.1
O=C(CSc1nnc(Cc2ccccc2)n1Cc1ccccc1)Nc1nccs1,104.0
CCOC(=O)N1CCN(C(=O)CN(c2ccc(Cl)c(C(F)(F)F)c2)S(C)(=O)=O)CC1,91.4
CCCC1c2ccsc2CCN1C(=S)NC (configuration not stated),99.5
CCOC(=O)c1cc(C#N)c(N2CCNCC2)nc1C(F)(F)F,93.4
O=C(Nc1ccc2[nH]ncc2c1)C1CCC1,97.8
CC(C)Cn1c(=O)n(C)c(=O)c2[nH]cnc21,93.7&111.6
O=C(/C=C/c1ccc(F)cc1)N1CCN(C/C=C/c2ccccc2)CC1,96.2
CC(=O)OCC1OC(OC(C)=O)C(O)C(OC(C)=O)C1OC(C)=O (configuration not stated),90.4
CC(CC(=O)NCC1CCCO1)c1ccccc1 (configuration not stated),89.5
COc1ccc(NC(=O)Nc2ncn(Cc3cccc(C(F)(F)F)c3)n2)cc1OC,97.2
CC(NC(=O)C1CCC1)c1ccc2c(c1)OCO2 (configuration not stated),96.1
CCNc1nc(NCC)nc(Nn2cnnc2)n1,88.1
O=C(NCC1COC2(CCCCC2)O1)Nc1ccccc1 (configuration not stated),101.2
CCC(=O)OC(OP(=O)(CCCCc1ccccc1)CC(=O)N1C[C@H](C2CCCCC2)C[C@H]1C(=O)O)C(C)C (some centres not stated),91.9
O=C1c2ccc3c4c(ccc(c24)C(=O)N1c1nccs1)C(=O)N(c1nccs1)C3=O,86.1
N#CC(C#N)=CNc1ccc2oc3ncccc3c(=O)c2c1,92.1
O[C@H]1CCCC2CCCCC21 (some centres not stated),99.4
CCNC(=O)CSc1ccc(Cl)cc1,93.9
CC(C)=CCSc1nc2sc3c(c2c(=O)[nH]1)CCCC3,89.1
OCC1CCCN(Cc2ccc(Br)o2)C1 (configuration not stated),93.1
COCCNS(=O)(=O)c1ccc(C(=O)OC)n1C,95.4
CC(O)CN(Cc1ccc(Cl)c(Cl)c1)CC(C)O (configuration not stated),93.5
CS(=O)(=O)N1CCN(C(=O)CSc2ccccc2)CC1,80.6
CCCCS(=N)(=O)CCC(N)C(=O)O (configuration not stated),86.7
C=CCn1c(CCNC(=O)c2cccs2)nnc1SCC(=O)c1ccc(Br)cc1,102.1
Cc1cccc(N=C(N)NC(N)=O)c1,98.0
O=C(c1cc2cc(Br)ccc2oc1=O)N1CCN(c2ccccc2F)CC1,105.3
CSc1ccc(C(C(C(=O)c2cccs2)N2CCOCC2)N2CCOCC2)cc1 (configuration not stated),91.9
O=C(CN(C(=O)c1ccccc1)N1C(=O)CCC1=O)c1ccccc1,94.2
COc1cc(-c2ccc(=O)[nH]n2)ccc1OC(F)F,95.3&94.8
COc1cccc(NC(=O)NCc2ccccc2)c1,93.6
O=C(Nc1cccc2nonc12)C(F)(F)C(F)(F)C(F)(F)F,103.1
CC1=C(C(N)=O)C(/C=C/c2ccccc2)n2ncnc2N1 (configuration not stated),28.6*
COc1ccccc1OCC(=O)N(C)c1ccccc1,99.5
O=C(NCCNCC(O)COc1ccc(O)cc1)N1CCOCC1 (configuration not stated),95.6
O=C(O)CCc1ccc(-c2ccc(F)cc2)n1NC(=O)c1ccco1,91.1
CC(C)CNC(=O)C(C)Oc1ccccc1 (configuration not stated),97.6
CSc1cccc(C(=O)Nc2cc(C)on2)c1,94.3
COc1ccccc1OC(=O)Nc1ccccc1,97.2
CCOC(=O)c1s/c(=N\C(=S)NC(=O)CN2C(=O)CCC2=O)n(C)c1C,94.3
CC(C)(C)NC(=S)Nc1cccc(Cl)c1,102.4
CSC(=CC(=O)C(C)(C)C)SC,90.6
Cc1ccc(C(=O)CC(C(=O)O)n2ccc(C)n2)cc1 (configuration not stated),99.3
O=C1CCCN1CCC1CCN(C(=O)Nc2ccccc2)CC1,90.8
CCOc1ccc(C2c3c(oc4ccc(C)cc4c3=O)C(=O)N2CCN(CC)CC)cc1OC (configuration not stated),95.8
S=C(NCCc1ccc(Cl)cc1)NCc1ccco1,96.5
COc1cc(CO)cc(Br)c1OCc1cccnc1,96.4

(cont.)
SMILES,RVFV N-RNA FP
Cc1ccc(-c2nnc(-c3ccc(NC(=O)C(C)C)cc3)o2)cc1,91.5
O=Nc1c(-c2c(O)[nH]c3ccccc23)[nH]c2ccccc12,102.4&95.4
OCc1cccn1-c1ccc(I)cc1,85.6
Cc1ccc(C(=O)NC(C)C(C)(C)C)o1 (configuration not stated),99.0
CC1(C)Cc2c(c(=S)nc(-c3ccccc3)n2CCO)CO1,98.5
OCCn1c(SCCOc2ccccc2)nc2ccccc21,92.9
CSc1nc(C)cc(ON=C(C)C)n1,88.4
CCC1(C)C(C#N)(C#N)C1(C#N)C#N,86.5
CNc1oc(-c2ccc(OC)cc2)nc1C#N,95.7
N#Cc1nc(Cc2ccccc2)oc1NCCc1ccccc1,97.2
O=C(O)CCC(=O)N1CCCCC1,98.1
C/C(=C/c1ccccc1)C(=O)N1CC(C)OC(C)C1 (configuration not stated),107.2
CSc1nnc(-c2ccccc2)n1/N=C/c1cn[nH]c1-c1ccccc1,83.2
CC[C@]1(O)C[C@H]2CN(CCc3c([nH]c4ccccc34)[C@@](C(=O)OC)(c3cc4c(cc3OC)N(C)[C@H]3[C@@](O)(C(N)=O)[C@H](O)[C@]5(CC)C=CCN6CC[C@]43[C@@H]65)C2)C1,97.6
O=C(CSc1ncnc2c1nnn2-c1ccc(F)cc1)NC1CCCCC1,97.0
COc1ccc(OC)c(S(=O)(=O)N(C)CC(=O)N2CCN(c3ccc(F)cc3)CC2)c1,91.2
CN1C(=O)C=CC1=O,93.9
OC1(C(F)(F)F)CC(c2ccc3c(c2)CCO3)=NN1 (configuration not stated),98.9
Cn1c(CNC(=O)OC(C)(C)C)nnc1SCc1ccccc1,92.3
CCOc1ccc2nc(SCC(=O)O)sc2c1,99.0
S=C(N/N=C\c1ccco1)Nc1ccccc1,92.7
O=C(c1ccc(S(=O)(=O)N2CCOCC2)cc1)N(Cc1ccccn1)c1nc2ccccc2s1,98.3
Cc1cc(N2CCOCC2)nc(SCC(=O)NCc2ccco2)n1,95.2
O=C(CCCSC1=NC(c2ccco2)CC(C(F)(F)F)N1)Nc1ccc(Cl)c(Cl)c1 (configuration not stated),98.9
CC(NC(=O)c1ccccc1)c1nnc(SCc2nc3ccccc3c(=O)[nH]2)n1C (configuration not stated),98.4
O=C(Nc1ccncc1)c1cc([N+](=O)[O-])ccc1Cl,96.3
OCc1nc2ccccc2n1CCOc1cccc(Cl)c1,95.2
CN1C(=O)S/C(=C\c2ccc(I)cc2)C1=O,91.1
O=C(c1ccc(Br)s1)N1CCCC1,92.7
N#C/C(=C/c1cn(Cc2ccc(C(=O)O)o2)c2ccccc12)c1ccc(F)cc1,91.3
COc1cc(/C=C/C(=O)C(C)(C)O)cc(OC)c1OC,92.1
C=CCn1c(CNC(=O)c2ccccc2)nnc1SCC(=O)N1CCN(c2ccccc2)CC1,87.5
C=CCn1c(CNC(=O)c2cccs2)nnc1SCC(=O)c1ccc(Br)cc1,91.1
CCOC(=O)c1ccc(COc2nc3ccccc3nc2-c2ccccc2NC(C)=O)o1,98.8
CSc1nc(C)nc(N/C=C(\C#N)S(=O)(=O)c2ccccc2Cl)n1,95.0
Cc1ccc(C(=O)Nc2ccc(S(=O)(=O)N3CCOCC3)cc2)cc1C,84.7
CN1CCN(C(=O)Cc2ccccc2)CC1,88.0
O=C(N1CC2CC(C1)c1cccc(=O)n1C2)C(F)(F)F (configuration not stated),87.4
O=C(NC(=S)Nc1ccccc1)c1ccco1,90.8
O=C1Nc2ccc(Cl)cc2C12SCCS2,97.3
O=C1CN(c2ccc(Cl)cc2)C2(CCCCC2)S1,98.0
CCCCOC(=O)Nc1cc(C)ccc1C,92.8
CC(C)(C)CC(=O)Nc1cccc2c1CCCC2,91.6

Single entries from above:
COc1cc(/C=C/C(=O)C(C)(C)O)cc(OC)c1OC @ RVFV N-RNA FP = 92.1
CSc1nc(C)nc(N/C=C(\C#N)S(=O)(=O)c2ccccc2Cl)n1 @ RVFV N-RNA FP = 95.0

Compound activity deposited in PubChem BioAssay by ICCB-Longwood Screening Facility, Harvard Medical School.
